Screening results as filed in PubChem.
GIV Gai3 FP: blocks GIV peptide binding to rat Galpha-i3 | P08753 | Galpha-i3/FITC-GIV peptide fluorescence polarization, 90 min; stronger effect = lower value; scaled: aluminum fluoride 0%, vehicle 100% | percent of control (FP), % (concentration not given with the values) | actives 0.42% (n = 210,000);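 active = replicate mean at 85% of control or lower, very high polarization wells dropped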;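 also: wells of about 15 µL received 100 nL stock; the first replicate is given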
Target sequence (P08753 whole entry, looked up): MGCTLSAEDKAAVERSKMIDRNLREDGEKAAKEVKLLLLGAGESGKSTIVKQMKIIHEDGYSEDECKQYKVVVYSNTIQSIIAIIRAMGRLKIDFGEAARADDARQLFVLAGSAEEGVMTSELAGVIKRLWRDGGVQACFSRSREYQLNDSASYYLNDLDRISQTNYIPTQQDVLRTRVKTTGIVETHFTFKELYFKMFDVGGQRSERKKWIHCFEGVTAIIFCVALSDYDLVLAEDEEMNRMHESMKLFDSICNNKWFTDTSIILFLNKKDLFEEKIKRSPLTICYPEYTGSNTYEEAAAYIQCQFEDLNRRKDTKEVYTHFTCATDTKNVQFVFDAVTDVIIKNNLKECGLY
HCMV UL50-53 inh: cytomegalovirus nuclear egress complex inhibition; HTRF UL50-UL53 interaction, normalized percent inhibition; inhibition, % (test concentration not listed); actives 0.15% (n = 190,000); AID 1918969;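 active = both replicates at 50% or more, plus weaker picks with an unusually low signal ratio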;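 also: stock transfer was 100 nL into about 20 µL; 0% = negative control wells and 100% = wells with untagged competitor protein; inactives centre near -12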
Sa growth 42C: blocks Staphylococcus aureus growth. S. aureus RN4220 growth, OD600, 20 h, 42 °C; stronger effect = lower value. relative growth, % (no concentration beside the values). actives 0.53% (n = 170,000). AID 720641;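 active = growth at 42 °C up to 50% and 20 or more points under that at 30 °C, or under 10% at both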;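 also: 300 nL library stock went into each well; scaled to the means of positive and negative controls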
Sa growth 42C second temp: second read-out of Sa growth 42C, no call of its own (marks repeat the call); relative growth, %; measured here: growth at 30 °C;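 optical density after 20 h as mean of two plates; 100% = untreated growth and lower means inhibition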
An asterisk follows results filed as active; x = not tested or not shown; & = joins results of further samples.

SMILES | GIV Gai3 FP | HCMV UL50-53 inh | Sa growth 42C | Sa growth 42C second temp
Cc1cccc(Nc2ncnc3onc(C)c23)c1 | 99 | -6 | x | x
CC(C)C(=O)N(C)c1nnc(-c2ccc(F)cc2)s1 | 107 | -3 | 91 | 65
Cc1ccc(N2C(=O)CCS2(=O)=O)cc1S(=O)(=O)NC1CCCCC1 | 100 | -10 | x | x
COc1cc2c(cc1OC)C(CC(=O)O)N(C(=O)Nc1cc(OC)c(OC)c(OC)c1)CC2 (stereo unspecified) | 99 | x | 94 | 88
CCOCC(=O)NCc1ccccc1Cl | 107 | -6 | 90 | 91
Cc1ccc(C(c2nnnn2C2CCCC2)N2CCc3ccccc32)cc1 (stereo unspecified) | 108 | 5 | 104 | 92
Cc1[nH]nc2c1C1(CCN(C(=O)c3ccccc3)CC1)C(C#N)=C(N)O2 | 99 | x | 105 | 77
COC(=O)c1sc(-c2ccccc2)cc1NC(=O)c1cccc(Cl)c1 | 103 | -11 | 100 | 89
Cc1c(Cl)cccc1NC(=O)NCCOCCn1c(=O)oc2ccccc21 | 99 | -23 | 108 | 93
CCc1ccccc1NC(=O)c1cc(-c2ccccc2O)on1 | 113 | -18 | 94 | 87
NC(=O)COC(=O)c1ccc(Cl)cc1 | x | -1 | 85 | 105
Cc1nn(-c2ccccc2)c2c1N(C(=O)CCC(=O)NCc1ccccn1)CCS2 | 104 | -15 | x | x
Cc1cc(C)c(NC(=O)c2cc(-c3cccnc3)on2)c(C)c1 | 99 | -10 | x | x
CCC(C(=O)NCc1ccc(Cl)cc1)N1C(=O)CCCc2ccccc21 (stereo unspecified) | 108 | -10 | x | x
COc1cccc2cc(-c3ccc(F)cc3)c(=O)oc12 | 104 | -24 | 123 | 93
CSc1ccccc1C(=O)OCC(=O)NC1CCCC1 | x | 5 | 101 | 93
Cc1ccc(Nc2ncnc3onc(C)c23)cc1Cl | 105 | x | 91 | 88
NC(=NCc1ccccc1)NS(=O)(=O)c1ccccc1 | 107 | -8 | 108 | 91
O=COC1CCCCC1NS(=O)(=O)c1ccccc1 (stereo unspecified) | x | -19 | 100 | 85
CCOc1ccccc1NC(=O)c1c(NC(=O)c2ccccc2C)sc2c1CCC(C)C2 (stereo unspecified) | 101 | -23 | 100 | 88
COc1ccc(NC(=O)c2ccccc2NC(=O)c2ccco2)cc1 | 98 | -10 | 130 | 96
O=C(CSc1nnnn1C1CCCC1)N1CCCC1 | 101 | -3 | 186 | 85
CN1C(=O)C(O)(C2COC(C)(C)CC2=O)c2ccccc21 (stereo unspecified) | 109 | -55 | x | x
O=C(CN1c2ccc(F)cc2-c2ccccc2S1(=O)=O)NC1CC1 | 109 | -11 | x | x
CCN(CC)CCNC(=O)CN1C(=O)c2cccnc2Oc2ccc(C)cc21 | 104 | x | 91 | 94

Further compounds follow:
SMILES | GIV Gai3 FP | HCMV UL50-53 inh | Sa growth 42C | Sa growth 42C second temp
Cc1ccc(S(=O)(=O)N2CCC(C(=O)OCc3cc(=O)n4cc(C)ccc4n3)CC2)cc1 | x | -19 | 96 | 91
Cc1cc(S(=O)(=O)Nc2ccc3[nH]c(=O)sc3c2)ccc1F | 101 | x | 134 | 90
CCCCN(C)S(=O)(=O)c1ccc(-c2ccc(=O)[nH]n2)o1 | 107 | -30 | 100 | 97
CCOc1ccc(-c2nc3cc(N)ccc3o2)cc1 | 98 | -10 | 71 | 64
CCCSCCCNC(=O)c1ccc(C)c(NC(=O)c2nsc3ccccc23)c1 | 104 | x | 115 | 86
C=CCn1c(O)c(C2=c3cc(Br)ccc3=NC2=O)c2ccccc21 | 103 | x | 1.4* | 6.5*
CCOc1ccc(Cc2nc(C)c(CC(=O)N3CCCCC3)c(=O)[nH]2)cc1 | 101 | -16 | 107 | 84
CCOC(=O)c1sc2ccccc2c1S(=O)(=O)N1CCN(c2cccc(OC)c2)CC1 | 100 | x | 94 | 88
O=C(NC1(C(F)(F)F)C(=O)Nc2c1c(=O)[nH]c(=O)n2-c1ccccc1)c1ccccc1Cl (stereo unspecified) | 100 | x | 106 | 94
O=C(CO)c1ccc(F)cc1 | 99 | -9 | 94 | 88
CON(C)S(=O)(=O)c1ccc(C(=O)O)cc1 | x | -16 | 103 | 97
COc1ccc2nc(NC(=O)c3ccc(Br)cc3)sc2c1 | x | 6 | 95 | 95
CN(CCCNC(=O)c1nn(C)c2c1CSc1ccccc1-2)c1ccccc1 | 106 | -33 | x | x
O=C(c1ccc(S(=O)(=O)N2CCOCC2)cc1)N(c1cccc(Cl)c1)C1C=CS(=O)(=O)C1 (stereo unspecified) | 91 | -8 | x | x
CCCn1c2ccccc2c2cnn(CC(=O)N3CCC(C)CC3)c(=O)c21 | 104 | x | 105 | 97
Cc1cccc(C)c1NC(=O)Cn1nnc(C(=O)NCc2ccccc2Cl)c1N | 101 | -31 | 92 | 77
O=C(COC(=O)c1cccs1)NC1CCCC1 | x | -14 | 76 | 87
CC(C)COc1cccc(OCC(=O)NC(C)C(=O)O)c1 (stereo unspecified) | x | 8 | 103 | 98
O=S(=O)(NCc1ccc2c(c1)CCO2)c1ccc(C(F)(F)F)cc1 | 107 | -20 | 95 | 91
CCOC(=O)/C(C#N)=C/c1ccc(-c2ccc(C)cc2)o1 | 110 | 19 | 108 | 107
CCC(CC)C(=O)Nc1cccc(-c2cn3cccnc3n2)c1 | 104 | x | 96 | 99
CC(C)(Oc1ccc(Cl)cc1)C(=O)Nc1nnc2n1CCS2 | 100 | x | 88 | 92
Cc1cc(C)n(-c2nnc3n2N=C(c2c[nH]c4ccccc24)CS3)n1 | 101&100 | -12&-50 | 105 | 79
Cc1ccc2nc(C3CCCCC3)oc2c1 | x | 6 | 85 | 108
COc1ccc(CCNC(=O)CSc2ncnc3c2nnn3Cc2ccccc2)cc1OC | 105 | x | 97 | 83

Brought forward from above: six entries; new compounds follow.
SMILES | GIV Gai3 FP | HCMV UL50-53 inh | Sa growth 42C | Sa growth 42C second temp
CCOC(=O)/C(C#N)=C/c1ccc(-c2ccc(C)cc2)o1 | 110 | 19 | 108 | 107
CCC(CC)C(=O)Nc1cccc(-c2cn3cccnc3n2)c1 | 104 | x | 96 | 99
CC(C)(Oc1ccc(Cl)cc1)C(=O)Nc1nnc2n1CCS2 | 100 | x | 88 | 92
Cc1cc(C)n(-c2nnc3n2N=C(c2c[nH]c4ccccc24)CS3)n1 | 101&100 | -12&-50 | 105 | 79
Cc1ccc2nc(C3CCCCC3)oc2c1 | x | 6 | 85 | 108
COc1ccc(CCNC(=O)CSc2ncnc3c2nnn3Cc2ccccc2)cc1OC | 105 | x | 97 | 83
CC(C)(C)C(=O)/C=C/c1ccco1 | 135 | 25 | 82 | 73
COC(=O)c1ccc(NS(=O)(=O)c2c(C)nc3sccn3c2=O)cc1 | 105 | x | 114 | 78
O=C(Nc1ccc2c(c1)OCO2)Nc1ccc2nc3n(c(=O)c2c1)CCCC3 | 100 | 1 | x | x
O=c1ccc(-c2ccc(Cl)c(S(=O)(=O)Nc3ccccc3)c2)n[nH]1 | 101 | -73 | x | x
COc1cc(OC)c(Nc2cc(C)nc3ncnn23)cc1Cl | 101 | -2 | 101 | 92
COC(=O)/C(C#N)=C\c1c[nH]c2ccccc12 | 105 | -70 | 90 | 52
COc1cccc(-c2nc(-c3ccc(-c4ccccc4)nc3OC)no2)c1 | 107 | -14 | 104 | 99
O=[N+]([O-])c1ccc2sc(SCc3nc4ncccn4c3Br)nc2c1 | 103 | -45 | x | x
O=C(CSc1nc(-c2ccccc2)nc2c1Cc1ccccc1O2)Nc1ccccc1 | 101 | x | 92 | 94
Cc1ncc(CSc2ccccc2N)c(CO)c1O | 103 | -28 | 87 | 82
CCc1nn2c(-c3ccccc3OC)ccnc2c1-c1ccc(F)cc1 | 108&103 | 10&-24 | 91 | 103
CCOC(=O)N1CCN(C(=O)CCn2c(=S)[nH]c3cc4c(cc3c2=O)OCO4)CC1 | 96 | x | 102 | 97
COc1ccc2c(c1)CCCN2Cn1nc(-c2ccccc2)n(-c2ccccc2)c1=S | x | 2 | 106 | 85
CCCCn1c(=S)[nH]c2cc(S(=O)(=O)N3CCOCC3)ccc21 | x | -10 | 96 | 93
Nc1c(C(=O)NCC2CCCO2)sc(=S)n1Cc1ccccc1 (stereo unspecified) | 106 | -71 | x | x
O=C(O)c1ccc2[nH]c(=O)c(Cc3ccc(OC(F)F)cc3)nc2c1 | 98 | -62 | x | x
O=S(=O)(c1cc(Cl)ccc1Cl)n1ccnc1 | x | -4 | 92 | 81
Cc1nc(CSc2n[nH]c(C(C)(C)C)n2)cs1 | 104 | -25 | 133 | 85
N#C/C(=C\c1ccc2c(c1)OCO2)C(=O)N1CCCC1 | 109 | -1 | 96 | 89
COc1ccc(C2=CC(c3ccc(OC)cc3)n3ncc(C(=O)Nc4ccc(Cl)cc4)c3N2)cc1 (stereo unspecified) | 109 | -9 | x | x
COc1ccc(C(=O)Nc2nnc(S(=O)(=O)N(CC(C)C)c3ccc(C)cc3)s2)cc1OC | 106 | -19 | 100 | 93
Cc1ccc(S(=O)(=O)N2CC(=NN=C(N)N)C2)cc1 | 99 | -19 | 85 | 82
CCc1ccc(NC(=O)N2CCc3c(sc4nc(-c5ccc(OC)cc5)nn34)C2)cc1 | 107 | -4 | x | x
CC(C)(C)N1CC(OC(=O)Nc2ccccc2)C1 | x | -3 | 92 | 90
CN(C)C(=O)CSc1n[nH]c(-c2ccccc2)n1 | 101 | 12 | 78 | 78

The closing two records of the section before come first, to join the parts.
SMILES | GIV Gai3 FP | HCMV UL50-53 inh | Sa growth 42C | Sa growth 42C second temp
CC(C)(C)N1CC(OC(=O)Nc2ccccc2)C1 | x | -3 | 92 | 90
CN(C)C(=O)CSc1n[nH]c(-c2ccccc2)n1 | 101 | 12 | 78 | 78
COc1ccccc1-c1nnc(SCC2CNC(=O)O2)n1-c1ccccc1 (stereo unspecified) | x | 4 | 77 | 96
O=C1/C(=C/c2ccc(F)cc2)CS/C1=C\c1ccc(F)cc1 | 109 | x | 131 | 82
COc1cccc(N2CCN(C(=O)c3cccn3-c3nnc(N4CCOCC4)s3)CC2)c1 | 112 | -2 | x | x
CCCn1c(=O)c2ccccc2n2c(=O)n(CC(=O)Nc3ccccc3OC)nc12 | 109 | 4 | x | x
Cc1[nH]c2ccccc2c1C(=O)CSc1nnc2sc3ccccc3n12 | 104 | -22 | x | x
CCC(C(=O)NC1CCCC(C)C1C)n1nc(C)n2c(cc3sccc32)c1=O (stereo unspecified) | 105 | x | 104 | 74
CCOC(=O)C1=C(CC)NC2=C(C(=O)CCC2)C1c1ccccc1OCC (stereo unspecified) | 96 | x | 78 | 95
CC(=O)Oc1ccccc1C(=O)N1CCN(c2ccccc2F)CC1 | 101 | -6 | 112 | 85
Cc1cc(C(=O)CN2C(=O)c3ccccc3S2(=O)=O)c(C)n1C | x | -18 | 96 | 93
CCC(=O)Nc1ccc(C(=O)OCc2ccccc2)cc1 | 104 | 2 | 108 | 102
CCOC(=O)CCn1cnc2onc(-c3cc(OC)ccc3Cl)c2c1=O | 101 | -30 | 104 | 86
CCOc1cccc(CNC(=O)c2ccc(N3CCCC3)c(NC(=O)Nc3ccccc3Cl)c2)c1 | 103 | -7 | x | x
CCS(=O)(=O)N1CCc2cc(C(=O)NCc3ccc(OC)cc3)ccc21 | 98 | -15 | 107 | 92
O=C(Cc1ccc2c(c1)CCCC2)NC1=NCCS1 | x | -5 | 104 | 94
COc1ccc(C(=O)NCc2ccc(C#N)cc2)cc1OC | 106 | -9 | 97 | 86
COc1ccc(CCn2nnc(-c3ccc(NC(C)=O)c(Cl)c3)n2)cc1 | 99 | -18 | 109 | 86
COc1ccc(NS(=O)(=O)c2cc(-c3onc(C)c3C)ccc2C)c(OC)c1 | 105 | x | 110 | 98
COc1cc2nc(CN(C)Cc3sccc3C)[nH]c(=O)c2cc1OC | x | 4 | 102 | 89
N#Cc1cc(N)ccc1Sc1cccc(C(F)(F)F)c1 | 97 | -19 | x | x
Cc1noc(C)c1S(=O)(=O)NC(C)C | 110 | x | 97 | 94
CCc1ccc(OCc2nnc(SCC(N)=O)o2)cc1 | 105 | -14 | 87 | 83
CCOC(=O)c1ccc2c(c1)N(Cc1ccc(F)cc1Cl)C(=O)c1ccccc1S2(=O)=O | 111 | x | 91 | 102
CC1=C(C#N)C(=O)N(C)C(=O)/C1=C/c1ccc(-c2cccc(Cl)c2C)o1 | 106 | -52 | 63 | 33
Cc1nc(-c2ccc(-n3cc(C(=O)Nc4cc(Cl)ccc4C)c(C)n3)cc2)no1 | 102 | -34 | x | x
O=C1NCCN=C1CC(=O)c1ccccc1 | x | -96 | 99 | 102

(cont.)
SMILES | GIV Gai3 FP | HCMV UL50-53 inh | Sa growth 42C | Sa growth 42C second temp
Cc1ccc(N2CC(C(=O)N3CCOCC3)CC2=O)cc1C (stereo unspecified) | 107 | x | 94 | 80
Cc1nc(/C(N)=N/OC(=O)c2cccc(Cl)c2)c(C(F)(F)F)o1 | 103 | -29 | 94 | 90
O=C(O)CN1C(=O)/C(=C/c2ccc(OC(=O)c3ccccc3I)cc2)SC1=S | 101 | -116 | x | x
O=C(O)C1(c2cccc(C(F)(F)F)c2)CCCC1 | x | 14 | 154 | 114
CCOc1ccc(N2C=Nc3ccc(OCC)cc3C2)cc1 | 103 | -5 | 92 | 84
COc1ccc(-c2cn3nc(SCC(=O)Nc4ccccc4F)ccc3n2)cc1 | 107 | x | 84 | 82
